Bioassay records deposited in PubChem BioAssay by National Center for Advancing Translational Sciences (NCATS).
LASV entry inh: qHTS for Inhibitors of binding or entry into cells for Lassa Virus; Lassa virus pseudotype entry inhibition, cell reporter; control for the full effect not named in the record; AID 540256, 2011; hit rate 1.2% among 300,000; Potency, µM (doses to about 37.9 µM), for inactives: top-dose activity change, negative = inhibition, most hits filed as inhibitors; active means well fitted inhibition curve with a large enough effect; inconclusive means small, poorly fitted or top-dose-only effect, or effect the other way; inactive means flat fitted curve, though single readings scatter; tested in HEK293 cells; further: on the % scale 0 is the no-effect control and ±100 the full control effect; nearly all actives have a fitted effect of over 50% in size; luciferase read-out
2A StopGo: High Throughput Screening for Foot and Mouth Disease Virus Antivirals; human cells with a luciferase reporter of 2A StopGo recoding; control for the full effect not named in the record; Potency, µM (doses to about 57.9 µM), for inactives: top-dose signal change, negative = less light; hit rate 1.2% among 410,000; AID 1159524, 2015; active = well fitted falling curve with a large enough effect; inconclusive = small, poorly fitted or top-dose-only effect; inactive = no such curve, though single readings can be large or run the other way; tested in HEK293T cells; further: on the % scale 0 is the no-effect control and ±100 the full control effect; nearly all actives have a fitted effect of over 45% in size; luciferase light after 4 h
Cruzain inh Det: qHTS Assay for Promiscuous and Specific Inhibitors of Cruzain (with detergent) | Cruzipain (Trypanosoma cruzi), P25779 | purified cruzain, Z-FR-AMC fluorescence, 0.01% Triton | Potency, µM, for the others: max response, negative = inhibition, actives largely listed as inhibitors | hit rate 0.43% among 200,000;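 further: plate controls were neutral wells for no effect and buffer without enzyme for full effect; nearly all actives have a fitted effect of over 40% in size; top concentration of the series not given in the record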
Target sequence (P25779 123-467 limits assumed): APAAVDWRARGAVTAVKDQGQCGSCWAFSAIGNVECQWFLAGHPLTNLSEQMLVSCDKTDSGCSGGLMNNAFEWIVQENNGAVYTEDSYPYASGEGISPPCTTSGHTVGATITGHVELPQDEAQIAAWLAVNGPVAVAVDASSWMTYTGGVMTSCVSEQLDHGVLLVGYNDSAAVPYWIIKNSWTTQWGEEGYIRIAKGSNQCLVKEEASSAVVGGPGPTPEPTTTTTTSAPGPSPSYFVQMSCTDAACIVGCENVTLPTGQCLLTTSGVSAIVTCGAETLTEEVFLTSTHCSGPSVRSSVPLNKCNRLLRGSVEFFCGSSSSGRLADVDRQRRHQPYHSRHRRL
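Detergent-containing arm of a paired screen for aggregation-based inhibition: 0.01% Triton X-100 present. Cruzain at 1.5 nM cleaved 2 uM Z-FR-AMC at pH 5.5 with 5 mM DTT; AMC fluorescence gain over 60 s measured activity.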
MARV entry inh: qHTS for inhibitors of binding or entry into cells for Marburg Virus. Marburg virus pseudotyped entry inhibition, cell reporter; control for the full effect not named in the record; about a third of the inactives were read at about 46 µM. Potency, µM (titrated, usually from 37.8 µM), inactives show top-dose activity change, negative = inhibition, hits mostly inhibitors. hit rate 1.8% among 300,000. AID 540276, 2011; active = well fitted inhibition curve with a large enough effect; inconclusive = small, poorly fitted or top-dose-only effect, or effect the other way; inactive = flat fitted curve, though single readings scatter; tested in HEK293 cells; about a fifth of its hits are not listed in these tables; further: on the % scale 0 is the no-effect control and ±100 the full control effect; luciferase read-out
NS1 inh: qHTS Assay for Inhibitors of Influenza NS1 Protein Function; Potency, µM (top dose mostly 46.1 µM), for the others: at the top dose activity, positive = more growth; hit rate 0.4% among 270,000; AID 2326, 2010; S. cerevisiae slowed by influenza A NS1, growth recovery by OD600; active means well fitted rising curve with a large enough effect; inconclusive means small, poorly fitted or top-dose-only effect; inactive means no such curve, though single readings can be large or run the other way; further: nearly all actives have a fitted effect of over 50% in size
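A cell-based growth assay was used: compounds that relieve NS1-induced slow growth of budding yeast raise OD600. Assay medium was yeast nitrogen base with ammonium sulphate and -URA supplement, pH 6.0, with 2% galactose.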
Cruzain inh noDet: qHTS Assay for Promiscuous and Specific Inhibitors of Cruzain (without detergent). purified cruzain, Z-FR-AMC fluorescence, no detergent. Potency, µM, for the others: max response, negative = inhibition, usual class: inhibitors. hit rate 2.3% among 200,000;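 further: plate controls were enzyme without inhibitor for no effect and buffer without enzyme for full effect; nearly all actives have a fitted effect of over 40% in size; top concentration of the series not given in the record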
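Purified cruzain at 1.5 nM, pre-incubated 15 min with compound at room temperature in 100 mM sodium acetate pH 5.5, 5 mM DTT, 0.00005% Triton X-100. Reaction started with 2 uM Z-FR-AMC; AMC fluorescence increase over 60 s gives rate.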
RE007 growth inh: qHTS Assay for Inhibitors of the HIV-1 protein Vpr; hit rate 0.21% among 360,000; S. pombe RE007 Vpr strain, BacTiter-Glo ATP luminescence, 24 h; control for the full effect not named in the record; Potency, µM (doses to about 92.2 µM), without a hit: at the top dose activity change, negative = less growth; AID 651644, 2012; active = well fitted falling curve with a large enough effect; inconclusive = small, poorly fitted or top-dose-only effect; inactive = no such curve, though single readings can be large or run the other way;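 further: on the % scale 0 is the no-effect control and ±100 the full control effect; nearly all actives have a fitted effect of over 50% in size; the assay follows cell death caused by Vpr and the record does not say whether a fall means rescue or toxicity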
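Fission yeast RE007 carrying one integrated HIV-1 vpr copy, seeded at OD 0.01 in PMG+AL medium with 23 nL pinned compound. Grown 24 h at 30 degrees; viability read by BacTiter-Glo luminescence after 5 min.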
SARS PLP yeast: qHTS of Yeast-based Assay for SARS-CoV PLP; S. cerevisiae expressing SARS-CoV PLpro, growth rescue; control for the full effect not named in the record; Potency, µM (top dose mostly 32.9 µM), without a hit: at the highest dose activity, positive = growth rescue; hit rate 0.19% among 330,000; active means well fitted rising curve with a large enough effect; inconclusive means small, poorly fitted or top-dose-only effect; inactive means no such curve, though single readings can be large or run the other way; further: 0% is about no effect; nearly all actives have a fitted effect of over 55% in size; growth read by luminescence after 48 h
Numbers without * were called inactive; ? = inconclusive; / = not tested or not shown; & = joins results of further samples; [ ] = dose if it differs, or a comment. Unless noted, the call rests on the fitted dose curve; in most records, active means well fitted curve in the direction sought with a large enough effect; inconclusive means small, poorly fitted or top-dose-only effect, or another doubt; inactive means no such curve, though single readings can be large; an effect the other way counts as inactive or inconclusive. Potency means the concentration at half of the fitted maximal effect.

SMILES	LASV entry inh	2A StopGo	Cruzain inh Det	MARV entry inh	NS1 inh	Cruzain inh noDet	RE007 growth inh	SARS PLP yeast
O=c1c(Cl)nc2cc(Cl)ccc2n1CCNc1ncc(C(F)(F)F)cc1Cl	4%	-16%	4.8%	23%	-50%	?	12%	6%
Oc1ccc2c3c1O[C@H]1c4oc5ccccc5c4C[C@@]4(O)C(C2)N(CC2CC2)CCC314 (some centres not stated)	/	/	-3.2%	10µM*	-11%	-2%	/	/
COc1ccccc1CNC(=O)c1cc(S(=O)(=O)N2CCCC2)cn1C	/	0%	/	/	4%	/	4%	-4%
CCCOc1ccc(C2C(C(=O)c3ccc(C)o3)=C(O)C(=O)N2Cc2ccco2)cc1OCC (configuration not stated)	/	10%	/	/	7%	/	15%	2%
COc1cc2c(cc1OC)C1Cc3ccc(OC)c(OC)c3CN1CC2 (configuration not stated)	1%	-21%&-3%	5.8%&0.6%	1%	-6%	8%&-17%	12%	9%
O=C(NC(=S)NCc1ccccc1)C1CCCCC1	?	28%	-10%	-22%	-20%	0%	-7%	?
Cc1cccc(-c2noc(CN(C)C(=O)c3ccoc3C)n2)c1	-11%[46.1 µM]	-1%	/	3%[46.1 µM]	-13%	/	-10%	-5%
Cc1ccc(CCNC(=O)C23C[C@H]4C[C@@H](C2)CC(n2nnc(C)n2)(C4)C3)cc1	-3%[46.1 µM]	-19%	/	-18%[46.1 µM]	/	/	-2%	-5%
COc1ccc(C2=NN(C(=O)c3ccncc3)C(c3ccccc3O)C2)cc1 (configuration not stated)	/	7%	/	?	-15%	/	15%	/
Cc1cccc(C)c1NC(=S)Nc1ccccc1C(=O)NCc1ccco1	1%	19%	-5.3%	-22%	-1%	-2%	-16%	6%
Cc1ccc2oc(=O)c3cc(C(=O)NCCCN4CCCC(C)C4)sc3c2c1 (configuration not stated)	/	-14%	/	/	9%	/	-13%	-2%
CCCn1c(C)nc2cc(Cl)c(N3CCN(c4nc(-c5ccc(C)cc5)cs4)CC3)cc21	/	?	/	/	-46%	/	-10%	-15%
O=C(/C=C/c1ccc(Cl)cc1Cl)NCCN1CCOCC1	-21%	6%	-9.1%	?	-5%	-5%	-17%	?
O=C(NCc1cccnc1)c1ccc(Cn2cc(C(F)(F)F)ccc2=O)cc1	-26%[46.1 µM]	-22%	/	-3%[46.1 µM]	-1%	/	0%	0%
Cc1ccc(NC(=O)[C@@H]2CCCN2S(=O)(=O)c2ccccc2C(F)(F)F)cc1S(=O)(=O)N1CCOCC1	-15%	17%	-2.7%	-15%	-8%	?	-18%	9%
CC1(C)NC(=O)N(CC(=O)Nc2nc(-c3ccc(F)cc3)cs2)C1=O	6%	8%	1.2%	3%	8%	3%	-14%	?
COc1ccc(NC(=S)NC(NC(=O)c2ccccc2Cl)C(Cl)(Cl)Cl)c([N+](=O)[O-])c1 (configuration not stated)	-23%	/	-11%	?	3%	17%	4%	5%
CC(C)(C)c1ccc(C(=O)CC(=O)c2cc(Cl)ccc2O)cc1	?	7%	-6.0%	-66%	-6%	?	-20%	0%
Cc1ccc(NC(=O)NC2CCN(CC(=O)Nc3nccs3)CC2)cc1	3%	-23%	-1.7%	18%	-6%	-2%	-8%	-2%
NC(=O)c1cc(S(=O)(=O)N2CCCC2)ccc1OCCOc1ccccc1F	-1%	8%	/	?	/	/	-15%	15%
Cc1cc(-c2nnc(SCc3cccnc3)o2)no1	20%	/	-0.7%	19%	-9%	-15%	8%	-3%
Fc1ccc(Sc2ccccc2CNC2=NCCN2)cc1	?	?	1.3%	-33%	-28%	9%	-20%	-51%
CCO[C@@H]1OC(C(=O)N2CCN(C)CC2)=C[C@H](c2coc3ccccc3c2=O)[C@H]1CCCO	/	-17%	/	/	4%	/	-1%	1%
COC(=O)C(CC(C)C)NC(=O)C(N)Cc1ccccc1 (configuration not stated)	0%	-12%	0.8%	1%	14%	-1%	-5%	-9%
O=c1cc(CN2CCOCC2)c2cc(Cl)ccc2o1	/	-13%	/	/	-2%	/	-1%	1%
O=C(COc1cccc(F)c1)N1c2ccccc2Sc2ccccc21	0%	-17%	-6.9%	?	0%	-10%	-20%	-19%
CN1CCC(OC(=O)COc2ccccc2)CC1	3%	6%	0.1%	0%	8%	-6%	2%	1%
Cc1ccc([C@@H]2[C@@H]3C(=O)N(C)C(=O)[C@@H]3[C@]3(Cc4ccccc4)C(=O)N(Cc4ccccc4)CC(=O)N23)o1	/	-5%	/	/	-18%	/	-4%	-8%
COCC1CCCCN1C(=O)c1cccc(OC2CCN(S(C)(=O)=O)CC2)c1 (configuration not stated)	/	17%	/	/	1%	/	4%	0%
Cc1cccc(N/C(N)=N/c2nc(C)cc(C)n2)c1	0%	-19%	-0.9%	?	12%	-3%	-15%	9%
CCCNC(=O)Nc1nccs1	13%	6%	8.8%	-21%	-26%	-8%	5%	20%
O=C(CSc1nnc(NC(=O)c2ccccc2Cl)s1)Nc1ccc2c(c1)oc1ccccc12	14%	/	-8.1%	5%	-7%	4µM*	/	12%
CCOC(=O)NC(Nc1cc(C)ccn1)(C(F)(F)F)C(F)(F)F	1%	-16%	1.3%	13%[46.1 µM]	12%	10%	8%	2%
COc1ccc(-n2c(C)cc(C(=O)CCl)c2C)cc1	/	28µM*	/	/	3%	/	-48%	-8%
c1ccc(N2CCOCCOCCOCCOCCOCC2)cc1	?	-10%	/	3%	-3%	/	-18%	1%
Cc1ccc2c(c1)c1c(c(=O)n(-c3ccccc3C)c(=O)n1CC(=O)NCc1ccccc1)n2C	-6%[46.1 µM]	?	1.0%	/	/	5%	/	/
COc1ccc(NC(=O)c2cccc(OC(F)F)c2)cc1Cl	1%	-6%	-6.2%	?	-6%	-9%	-36%	-18%
CCCCNC(=O)COC(=O)c1ccc(Cl)c(S(=O)(=O)N2CCCC2)c1	-9%	-17%	-1.2%	-1%[46.1 µM]	-3%	-3%	13%	-1%
O=C(c1ccco1)N1CCCN(Cc2cn[nH]c2-c2ccc(-c3ccccc3)cc2)CC1	?	-20%	/	-2%[46.1 µM]	-4%	/	-7%	-1%
Cc1cc(NC(=O)CSCC(=O)Nc2nc3c(C)cccc3s2)no1	-19%	-5%	/	26%	/	/	-3%	-6%
COC(=O)c1ccc(/C=C2/SC(=S)N(CCC(=O)NCCCN3CCOCC3)C2=O)cc1	/	24%	/	?	2%	/	-16%	-2%
COCC(=O)Nc1cc(=O)n(C)c(=O)n1C	/	-3%	-1.9%	/	?	0%	-2%	2%
O=S(=O)(NCCSc1ccccn1)c1ccc(Br)cc1	11%	53%[activator]	/	?	-3%	/	-2%	-2%
COc1ccc(NC(=O)Cn2c(=O)n(-c3ccc(OC)cc3)c(=O)c3ccc(C(=O)NCc4ccc(C)cc4)cc32)cc1	10%[46.1 µM]	-13%	-1.1%	-3%[46.1 µM]	/	?	/	/
Cc1ccc(S(=O)(=O)CCc2nnc(NC(=O)c3cccs3)s2)cc1	-2%	-2%	-2.1%	14%	-3%	?	-20%	-1%
CNS(=O)(=O)c1c(C)cc(C)c(N(C)S(=O)(=O)c2ccccc2)c1C	?	28%	/	12%[46.1 µM]	-8%	/	-3%	-1%
CCN(CC(=O)Nc1c(F)cccc1F)C(=O)/C=C/c1ccc(C)o1	-6%	-16%	/	15%[46.1 µM]	/	/	-2%	1%
COc1ccc(-n2ncc(C(=O)N3CCN(C4CCCCC4)CC3)c2C2CCN(C(=O)OC(C)(C)C)CC2)cc1	?	-11%	-2.9%	/	/	-16%	/	/
Cc1ccc(C(=O)NCc2ccco2)cc1S(=O)(=O)N1CCCCC1	?	/	0.5%	-11%	5%	-7%	12%	-6%
COc1cccc(NC(=O)N2CCCC2)c1	/	33%[activator]	/	/	-2%	/	7%	-3%
CCOc1nc(NC(=O)NS(=O)(=O)c2ccccc2F)nc(-c2ccccc2)n1	3%	61%[activator]	/	?	/	/	2%	4%
Cc1cc([P+](=O)O)c(C)n1-c1ccc(Br)cc1	2%	/	3.5%	-10%	0%	20µM*	6%	-2%
CCN(CC)c1ccc2oc(=O)c(C)nc2c1	?	/	-11%	?	-9%	-10%	?	-13%
N#Cc1ccccc1NC(=O)C1SC(=Nc2ccccc2)C(C(=O)Nc2ccc(Cl)cc2)=C1N (configuration not stated)	?	0%	/	-5%[46.1 µM]	?	/	-16%	0%
COc1ccc(CC(=O)OCC(=O)NC2CCCC(C)C2C)cc1OC (configuration not stated)	-15%	0%	/	-16%	/	/	18%	-21%
COc1ccc(CNC(=O)C2(CC(=O)NC(C)(C)C)CCCC2)cc1	/	-23%	/	/	7%	/	-2%	1%
